Source: PubChem BioAssay (National Center for Advancing Translational Sciences (NCATS))
Cruzain inh noDet: cruzain (T. cruzi) inhibition without detergent. actives 2.3% (n = 200,000). purified cruzain, Z-FR-AMC fluorescence, no detergent. Potency, µM, for the others: max response, negative = inhibition, most hits filed as inhibitors. AID 1476;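 further: plate controls were enzyme without inhibitor for no effect and buffer without enzyme for full effect; nearly all actives have a fitted effect of over 40% in size; top concentration of the series not given in the record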
Target sequence (P25779 123-467 limits assumed): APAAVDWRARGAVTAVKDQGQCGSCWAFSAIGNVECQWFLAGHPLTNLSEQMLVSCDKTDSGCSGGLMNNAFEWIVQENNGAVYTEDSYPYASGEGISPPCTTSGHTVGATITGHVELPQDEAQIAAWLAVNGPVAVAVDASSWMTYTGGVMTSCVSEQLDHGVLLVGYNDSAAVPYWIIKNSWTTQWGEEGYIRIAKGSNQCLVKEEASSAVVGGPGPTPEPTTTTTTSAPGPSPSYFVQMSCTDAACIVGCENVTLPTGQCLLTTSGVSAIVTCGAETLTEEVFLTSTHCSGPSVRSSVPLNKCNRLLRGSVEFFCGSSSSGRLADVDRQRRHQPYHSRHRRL
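Purified cruzain at 1.5 nM, pre-incubated 15 min with compound at room temperature in 100 mM sodium acetate pH 5.5, 5 mM DTT, 0.00005% Triton X-100. Reaction started with 2 uM Z-FR-AMC; AMC fluorescence increase over 60 s gives rate.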
MARV entry inh: blocks Marburg virus binding to or entry into cells. Marburg virus pseudotyped entry inhibition, cell reporter; control for the full effect not named in the record; about a third of the inactives were read at about 46 µM. Potency, µM (highest dose often 37.8 µM), for inactives: at the highest dose activity change, negative = inhibition, most hits filed as inhibitors. actives 1.8% (n = 300,000). AID 540276; active = well fitted inhibition curve with a large enough effect; inconclusive = small, poorly fitted or top-dose-only effect, or effect the other way; inactive = flat fitted curve, though single readings scatter; tested in HEK293 cells; about a fifth of its hits are not listed in these tables; further: on the % scale 0 is the no-effect control and ±100 the full control effect; luciferase read-out
SARS PLP yeast: inhibitors of SARS-CoV papain-like protease in yeast; actives 0.19% (n = 330,000); AID 485353; S. cerevisiae expressing SARS-CoV PLpro, growth rescue; control for the full effect not named in the record; Potency, µM (top dose mostly 32.9 µM), for inactives: at the top dose activity, positive = growth rescue; active means well fitted rising curve with a large enough effect; inconclusive means small, poorly fitted or top-dose-only effect; inactive means no such curve, though single readings can be large or run the other way; further: 0% is about no effect; nearly all actives have a fitted effect of over 55% in size; growth read by luminescence after 48 h
NS1 function inh: influenza NS1 inhibition | S. cerevisiae slowed by influenza A NS1, growth recovery by OD600 | Potency, µM (doses to about 46.1 µM), for inactives: at the highest dose activity, positive = more growth | actives 0.4% (n = 270,000); active means well fitted rising curve with a large enough effect; inconclusive means small, poorly fitted or top-dose-only effect; inactive means no such curve, though single readings can be large or run the other way; further: nearly all actives have a fitted effect of over 50% in size
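Read-out: OD600 growth recovery of NS1-expressing budding yeast. Cells grown overnight at 30C in -URA glucose medium, washed, resuspended and diluted 1:100 in 2% galactose assay medium, pH 6.0. Same strain lacking NS1 served as positive control.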
Cruzain Triton: inhibitors of Trypanosoma cruzi cruzain with detergent; P25779; purified cruzain, Z-FR-AMC fluorescence, 0.01% Triton; Potency, µM, for inactives: max response, negative = inhibition, actives largely listed as inhibitors; actives 0.43% (n = 200,000); AID 1478;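 further: plate controls were neutral wells for no effect and buffer without enzyme for full effect; nearly all actives have a fitted effect of over 40% in size; top concentration of the series not given in the record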
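Compounds were screened in titration against cruzain (1.5 nM) with 0.01% Triton X-100 to counter colloidal aggregation. Activity was the AMC fluorescence increase over 60 s after adding 2 uM Z-FR-AMC at pH 5.5.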
RE007 growth inh: less growth of the S. pombe RE007 Vpr strain; actives 0.21% (n = 360,000); S. pombe RE007 Vpr strain, BacTiter-Glo ATP luminescence, 24 h; control for the full effect not named in the record; Potency, µM (titrated, usually from 92.2 µM), inactives show top-dose activity change, negative = less growth; AID 651644; active = well fitted falling curve with a large enough effect; inconclusive = small, poorly fitted or top-dose-only effect; inactive = no such curve, though single readings can be large or run the other way;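 further: on the % scale 0 is the no-effect control and ±100 the full control effect; nearly all actives have a fitted effect of over 50% in size; the assay follows cell death caused by Vpr and the record does not say whether a fall means rescue or toxicity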
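Fission yeast strain RE007, carrying one chromosomally integrated HIV-1 vpr copy, was seeded at OD 0.01 in PMG+AL medium with 23 nL pinned compound. After 24 h at 30 °C and 99% humidity, viability was read by BacTiter-Glo luminescence.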
2A StopGo: lowers the luciferase signal of an FMDV 2A StopGo reporter; human cells with a luciferase reporter of 2A StopGo recoding; control for the full effect not named in the record; actives 1.2% (n = 410,000); Potency, µM (highest dose often 57.9 µM), for inactives: top-dose signal change, negative = less light; AID 1159524; active = well fitted falling curve with a large enough effect; inconclusive = small, poorly fitted or top-dose-only effect; inactive = no such curve, though single readings can be large or run the other way; tested in HEK293T cells; further: on the % scale 0 is the no-effect control and ±100 the full control effect; nearly all actives have a fitted effect of over 45% in size; luciferase light after 4 h
LASV entry inh: Lassa virus entry inhibition; actives 1.2% (n = 300,000); Potency, µM (doses to about 37.9 µM), for inactives: at the highest dose activity change, negative = inhibition, hits mostly inhibitors; Lassa virus pseudotype entry inhibition, cell reporter; control for the full effect not named in the record; AID 540256; active means well fitted inhibition curve with a large enough effect; inconclusive means small, poorly fitted or top-dose-only effect, or effect the other way; inactive means flat fitted curve, though single readings scatter; tested in HEK293 cells; further: on the % scale 0 is the no-effect control and ±100 the full control effect; nearly all actives have a fitted effect of over 50% in size; luciferase read-out
The depositor's hits bear a star; ? = inconclusive; / = no result given; & = joins results of further samples; [ ] = remark or other dose. Unless noted, the call rests on the fitted dose curve; in most records, active means well fitted curve in the direction sought with a large enough effect; inconclusive means small, poorly fitted or top-dose-only effect, or another doubt; inactive means no such curve, though single readings can be large; an effect the other way counts as inactive or inconclusive. Potency means the concentration at half of the fitted maximal effect.

SMILES | Cruzain inh noDet | MARV entry inh | SARS PLP yeast | NS1 function inh | Cruzain Triton | RE007 growth inh | 2A StopGo | LASV entry inh
CCn1c(C)nc2cc(C(=O)NNS(=O)(=O)c3ccccc3F)ccc21 | -1% | ? | 1% | 17% | 2.4% | 18% | 12% | 12%
COC(=O)c1ccc(COC(=O)C(CCSC)NC(=O)COc2ccccc2)cc1 (stereo not drawn) | / | 5% | ? | -23% | / | -29% | 18% | -16%
COc1ccc2c(c1OC)C(=O)OC2Nc1nc(-c2cc3cc(Br)ccc3oc2=O)cs1 (stereo not drawn) | / | 22%[46.1 µM] | -4% | -28% | / | ? | -2% | -12%
CN(C)S(=O)(=O)c1cc(NC(=O)COC(=O)c2ccc3c(c2)OCO3)ccc1Cl | 2% | -30%&3% | 10% | 8% | -3.4% | -2% | -15% | -24%
Cc1nc2cc(-c3ccccc3)nn2c(C)c1CCC(=O)NC(C)c1ccc2c(c1)OCCO2 (stereo not drawn) | ? | -10% | -1% | -28% | -5.2% | -6% | -15% | -1%
O=C(NCc1ccco1)c1cccc(S(=O)(=O)N2CCc3ccccc32)c1 | -18% | ? | 14% | 3% | -5.4% | -16% | -3% | -20%
COc1ccc(Br)cc1/C=N/NC(=O)c1cc(OC)c(OC)c(OC)c1 | ? | ? | -14% | 4% | -5.4% | -5% | -29% | ?
N#C/C(=N\Nc1ccc(Cl)cc1)C(=N)N1CCCCCC1 | / | 5% | -2% | / | / | -10% | 54%[activator] | 0%
CC(=O)/C(=N/Nc1ccccc1)Sc1nnc(CCc2ccccc2)n1-c1ccccc1 | 11% | ? | -22% | 4% | -4.6% | 2% | -2% | ?
COC(C(=O)Nc1ccnn1C1CCN(C(=O)c2cccc(F)c2)CC1)c1ccccc1 (stereo not drawn) | / | / | 5% | 0% | / | 2% | -13% | /
COc1ccccc1C(=O)Nc1c(C(=O)N2CCN(c3ccccc3F)CC2)oc2ccccc12 | 0% | / | / | / | -4.4% | / | 0% | 7%[46.1 µM]
C=CCOC(=O)C(C#N)c1nc2ccccc2nc1N1CCN(Cc2ccccc2)CC1 (stereo not drawn) | -7% | -13%[46.1 µM] | 21% | 10% | -1.9% | 11% | 0% | -1%
Cc1ccc2c(c1)nnn2C1CCN(CC(=O)NNC(=O)c2ccco2)CC1 | / | / | 1% | 1% | / | -5% | 3% | /
Cc1ccc2ncnc(Nc3ccc(C)c(C)c3)c2c1 | 1% | ? | -17% | -98% | -6.7% | ? | -11% | ?
CCOC(=O)c1c(-c2ccccc2)oc2ccc(OCC(=O)NNC(=O)CCC(=O)O)cc12 | / | / | -2% | 4% | / | 4% | -1% | /
Cc1ccccc1N1C(=O)C2ON(c3ccccc3)C(c3ccncc3)C2C1=O (stereo not drawn) | 7% | -6% | -2% | -2% | 2.4% | 9% | 1% | -4%
Cc1cc(C(=O)O)ccc1N=Cc1c(O)ccc2ccccc12 | / | 13% | -6% | 14% | / | -13% | -18% | ?
O=C(Nc1ccccc1F)c1cc(C(=O)Nc2ccccc2F)cc([N+](=O)[O-])c1 | / | / | 6% | 10% | / | -2% | -22% | /
COc1ccc(N2CCN(C(=S)Nc3ccc(OC)cc3OC)CC2)cc1 | / | / | 2% | 5% | / | 12% | -2% | /
COc1cc2c(cc1OC)C(C)N(C(=O)c1cc3n(n1)C(C(F)(F)F)CC(c1ccco1)N3)CC2 (stereo not drawn) | ? | ? | 24% | -14% | -11% | -14% | -27% | -28%
COc1ccccc1N(CC(=O)NCc1ccco1)S(C)(=O)=O | / | ? | 0% | -1% | / | -12% | -8% | 1%
Cc1cccc(C)c1NC(=O)CN1C(=O)C(C)Oc2ccccc21 (stereo not drawn) | / | ? | 6% | 22% | / | 26% | -15% | ?
CC1=C(C(=O)N2CCCCCC2)C2(CCC(C)CC2)OC1=O (stereo not drawn) | -1% | -4% | -1% | 1% | 5.7% | 18%[3.69 µM] | 5% | 3%
CCOC(=O)c1sc2c(c1C)c(=O)c(C(=O)OCC)cn2CC | -5% | 3%&3% | -9% | 0% | -3.7% | 10% | 4% | 16%
Cc1ccccc1NC(=O)C1CCN(c2cc(-c3ccccc3)nc3ncnn23)CC1 | ? | ? | 27% | -2% | 0.9% | 3% | 35µM* | ?
Cc1c(CCO)c(=O)[nH]n1S(=O)(=O)c1cccc(C(F)(F)F)c1 | / | 19%[46.1 µM] | 1% | -1% | / | 20% | 1% | 3%[46.1 µM]
COc1ccc(C(=O)OC(C)CN2CCOCC2)cc1 (stereo not drawn) | / | / | 1% | 4% | / | -13% | 34%[activator] | /
CCOc1ccc2nc(NCCNC(=O)Nc3cccc(C)c3)c(C#N)cc2c1 | -19% | ? | -1% | 5% | 5.0% | -6% | -12% | ?
O=C1O/C(=C/c2ccccc2)c2ccccc21 | -6% | 7% | -24% | -27% | -8.8% | -2% | 82%[activator] | 2%
CC1(C)CC(NC(=O)CCC2CCCC2)CC(C)(C)N1 | -9% | -3%[46.1 µM] | -4% | 5% | 0.7% | 3% | -2% | 3%
Nc1nnc(CCS(=O)(=O)c2cc(Cl)ccc2Cl)s1 | 7% | -6% | 4% | 5% | 5.7% | 1% | -9% | 1%
CCCCOc1cccc(OCCCC)c1C(=O)Nc1cc(C)on1 | 0% | -8% | -4% | -17% | 0.6% | 3% | -12% | 2%
COc1ccc(NC(=O)CS(=O)c2cccc(C(F)(F)F)c2)cc1 (stereo not drawn) | / | 3%[46.1 µM] | / | -1% | / | -21% | 3% | 3%[46.1 µM]
COC(=O)C(C)NC(=O)N1CCN(c2nnc(C)c3c(C)n(-c4ccc(Cl)cc4)nc23)CC1 (stereo not drawn) | -3% | / | / | / | -1.5% | / | ? | -3%[46.1 µM]
CC(C)(C)C(=O)COC(=O)c1c2c(nc3ccccc13)CCC2 | / | -4%[46.1 µM] | -1% | 1% | / | -10% | -13% | -24%
Cc1ccc(-c2nnc(N3CCOCC3)c3ccccc23)cc1S(=O)(=O)NCc1cccnc1 | / | ? | 0% | / | / | -8% | 23% | -1%[46.1 µM]
O=C(CCc1nc(-c2ccc(Cl)cc2)no1)NCC1CCCO1 (stereo not drawn) | / | 1%[46.1 µM] | 0% | -4% | / | 12% | -22% | -15%[46.1 µM]
CCCCCCC1NC(C(=O)O)CS1 (stereo not drawn) | -2% | -7% | 0% | 6% | 2.2% | -2% | -14% | -4%
O=C(CSc1nnc(-c2cccc(F)c2)c(-c2cccc(F)c2)n1)NC1CCCCC1 | -9% | / | / | / | -1.5% | / | -10% | -1%[46.1 µM]
COC(=O)c1ccc2c(c1)C(=O)/C(=C/c1ccc(O)cc1)O2 | -5% | 13% | -2% | 3% | -2.5% | 7% | 3% | ?
CCN(CC)S(=O)(=O)c1ccc2[nH]cc(C(=O)NCCCN3CCCCC3)c(=O)c2c1 | -15% | ? | 11% | 8% | -5.0% | 8% | -16% | ?
Cc1cc(SCC(=O)Nc2cccc(S(=O)(=O)NC3=NCCCCC3)c2)c(C)cc1Br | 11% | ? | -5% | 29% | -6.2% | 2% | ? | ?
CCOC(=O)c1[nH]c2c(c1-c1ccccc1)C(=O)CC(c1ccccc1)C2 (stereo not drawn) | -2% | 9% | 0% | 2% | 3.3% | 1% | 30% | 3%
COc1cc(OC)c(C(=O)N2CCN(c3ccccn3)CC2)cc1OC | / | / | 2% | 4% | / | 0% | -4% | /
O=C(CC(n1cncn1)C(Cl)(Cl)Cl)c1ccc([N+](=O)[O-])cc1 (stereo not drawn) | / | / | -9% | -84% | / | ? | -18% | /
Cc1cccc(NC(=O)NNC(=O)c2ccc3ccccc3c2)c1 | / | / | 4% | 15% | / | 5% | 8% | /
CCC(C)(C)NC(=O)C1CCC(CNS(=O)(=O)c2ccc3c(c2)CC(C)N3C(C)=O)CC1 (stereo not drawn) | 11% | / | / | / | -1.3% | / | -20% | 1%[46.1 µM]
CCCCn1c(N)c(N(CCOC)C(=O)c2ccc(N(C)S(=O)(=O)c3ccc(C)cc3)cc2)c(=O)[nH]c1=O | / | -11%[46.1 µM] | -2% | / | / | 10% | 14% | 9%
COC(=O)[C@H](Cc1ccccc1)NC(=O)N1CCC(C)CC1 | 1% | 5% | -6% | -14% | 2.7% | 5% | 60%[activator] | 5%
COCC(=O)NC1CC2CCC(C1)N2C(=S)Nc1ccccc1C(=O)OC (stereo not drawn) | / | -2%[46.1 µM] | -2% | 4% | / | 2% | -11% | -25%
Cc1c(Cl)sn(-c2ccc(Cl)cc2)c1=O | / | ? | -6% | -57% | / | 1µM* | ? | 9.2µM*
N=c1sccn1CC(=O)Nc1ccc(S(N)(=O)=O)cc1 | / | -3%[46.1 µM] | 0% | 1% | / | 0% | -1% | 0%
O=C1COc2ccc(C(=O)NCc3ccco3)cc2N1 | 1% | 0% | 2% | -2% | 4.0% | 0% | / | 11%
C=CCc1cc(C)ccc1OCCOCCC(C(=O)OCC)C(=O)OCC | 19% | ? | -33% | -14% | -7.4% | 0% | -23% | -1%
CCOC(=O)/C(C#N)=C/Nc1cc(C(C)(C)C)sc1C(C)=O | / | 8%[46.1 µM] | 0% | 7% | / | 9% | 31%[activator] | 11%
O=[N+]([O-])c1ccc(Oc2cccc3cccnc23)c(Cl)c1 | / | ? | -3% | -3% | / | 3% | ? | 22%
O=C(N/N=C/c1ccncc1)c1cc(-c2ccc(Br)s2)[nH]n1 | / | ? | 14% | -7% | / | -17% | 5% | ?
CCNC(=O)CSc1ncnc2sccc12 | -9% | 21%[46.1 µM] | -2% | 8% | -3.3% | 14% | 4% | ?
COC(=O)c1c(C)oc2ccc(N(C(=O)c3ccncc3)S(=O)(=O)c3ccc(C)cc3C)cc12 | 13% | 5.6µM* | -4% | 11% | -4.1% | -9% | ? | ?
